2A Renilla – lowers the Renilla signal of an FMDV 2A StopGo reporter. actives 0.32% (n = 120,000). AID 1745857. HEK cells with a luciferase reporter of 2A StopGo recoding. Potency, µM (series often up to 57.5 µM), without a hit: top-dose signal change, negative = less light; active means well fitted falling curve with a large enough effect; inconclusive means small, poorly fitted or top-dose-only effect; inactive means no such curve, though single readings can be large or run the other way; note: nearly all actives have a fitted effect of over 55% in size; overnight with compound
2A firefly – FMDV 2A StopGo reporter, firefly signal | HEK cells with a luciferase reporter of 2A StopGo recoding | actives 0.23% (n = 120,000) | Potency, µM (doses to about 57.5 µM), for the others: top-dose signal change, negative = less light; active = well fitted falling curve with a large enough effect; inconclusive = small, poorly fitted or top-dose-only effect; inactive = no such curve, though single readings can be large or run the other way; note: nearly all actives have a fitted effect of over 60% in size; overnight with compound
* hit, by the source's call; ? = inconclusive; [ ] = another dose, or the depositor's remark. % is set by controls: 0 for no effect and ±100 for the full control effect; potency is the fitted concentration of half-maximal effect. A portion of the library; rates above refer to the full screens.

SMILES	2A Renilla	2A firefly
O=C(/C=C/c1ccc(F)cc1)c1cccc(O)c1	16%	49%[activator]
Cn1cc[nH]c1=S	-4%	-4%[11.5 µM]
O=C(NCc1cccc(Cl)c1)C(=O)Nc1cccc2[nH]ccc12	17%	107%[activator]
CC(S)C(=O)NCC(=O)O (stereo not given)	-9%	-15%
O=C1/C(=C/c2ccc(-c3ccccc3)cc2)CCc2ccccc21	11%	163%[activator]
CCN(C(=O)CSc1nnc(-c2ccoc2C)o1)c1ccccc1	9%	13%
CCC(CC)NC(=O)c1ccc(C(C)(C)C)cc1	3%	0%
c1cc2cc(CNC3CC3)ccc2[nH]1	0%	4%
COc1ccc(-c2nc(CCNC(=O)Cc3ccc(F)cc3)cs2)cc1	?	?
COc1ccc(CNC(=O)Cn2ccc3cc(S(=O)(=O)N4CCCCC4)ccc32)cc1OC	93%[activator]	0%
CN(C(=O)Cn1c(=O)n(Cc2ccc(C(=O)NCc3ccc4c(c3)OCO4)cc2)c(=O)c2ccccc21)c1ccccc1	0%	-13%
COc1cc(OC)c(NC(=O)Nc2c(C)n(C)n(-c3ccccc3)c2=O)cc1Cl	-2%	-22%
COc1ccc(/C=C/C(=O)Nc2sc(C)c(C)c2C(=O)O)cc1	5%	3%
CCCCN(CCCC)CCNC(=O)c1cn(C)c2ccc(S(=O)(=O)N3CCCC3)cc2c1=O	13%	-11%
COCc1cnc2c(c1SCc1ccccc1)c(=O)n(C)c(=O)n2C	2%	22%
Cc1cc(C)cc(NC(=O)N2CCN(S(C)(=O)=O)CC2)c1	-9%	-2%
O=S(=O)(Nc1nc2ccccc2nc1N1CCCCCC1)c1ccc(Cl)cc1	63%[activator]	19%
COc1cccc(/C=C2\Oc3cc(OS(=O)(=O)c4ccccc4)ccc3C2=O)c1	6%	57%[activator]
CCNCc1ccc(O)c(OCC)c1	-3%	-8%
CCC(C)NC(=O)CCSc1nc(-c2ccc3c(c2)OCO3)cc(C(F)(F)F)n1 (stereo not given)	-8%	-16%
CC(C)Sc1c(C(C)C)cnc2c1c(=O)n(C)c(=O)n2C	14%	45%[activator]
COc1ccc(/C=C2\Oc3cc(OS(C)(=O)=O)ccc3C2=O)c(OC)c1OC	1%	1%
COc1ccc2[nH]c(=O)c(CN(C(=O)c3cccc(Cl)c3)c3ccccc3OC)cc2c1	-9%	-18%
Cc1ccc(C(=O)CC2(O)C(=O)N(CN3CCOCC3)c3ccccc32)s1 (stereo not given)	8%	2%
O=C(C1CCCN1S(=O)(=O)c1ccccc1)N1CCCCC1 (stereo not given)	-2%	1%
Cc1[nH]c2ccccc2c1C(=O)C(C)OC(=O)c1ccccc1F (stereo not given)	-2%[1.06 µM]	23%
Cc1ccc(C(=O)NCCC2=CCCCC2)c(C)c1	12%	-53%
COc1ccc(C2(c3cccc(Br)c3)CCCCC2)cc1	3%	5%
O=C(Nc1ccc(Oc2ccccc2)cc1)c1ccc(F)c(S(=O)(=O)N2CCN(c3ccccc3F)CC2)c1	?	?
CC(CCc1ccccc1)NC(=O)Cc1cccc2ccccc12 (stereo not given)	14%	-6%
O=C(NCCc1csc(-c2cccnc2)n1)c1ccccc1	2%	54%[activator]
Cc1ccc(C(=O)NCCC2=CCCCC2)cc1C	-4%[1.06 µM]	0%
COc1cccc(OCc2cc(=O)n3c(-c4ccccc4)csc3n2)c1	-5%	152%[activator]
CCc1ccc(NC(=O)c2cc(S(=O)(=O)N3CCCCC3)c[nH]2)cc1	96%[activator]	-10%
COC(=O)CNC(=O)c1cccc(C(F)(F)F)c1	-9%	4%
COCCn1c(-n2nc(C)cc2C)nc2c1c(=O)n(Cc1ccc(OC)cc1)c(=O)n2C	8%	13%
CCOc1cc(C(=O)OCc2cc(=O)n3c(C)csc3n2)cc(OCC)c1OCC	2%	-9%
FC(F)(F)c1ccc(=S)[nH]c1	2%	-1%
c1ccc(Cn2ncc3c2CCCC3NCc2ccsc2)cc1 (stereo not given)	-13%	-14%
Cc1ccc(C(=O)Nc2ccc(C(=O)O)cc2)cc1C	1%	145%[activator]
O=C(Cn1c(=O)c(C(F)(F)F)nc2ccccc21)Nc1ccc(Br)cc1F	-13%	-14%
CCOC(=O)C(CC)Sc1nnc(CSc2ncccn2)n1-c1ccc(Cl)cc1 (stereo not given)	31%[activator]	3%
CCN(CC)CCN(C(=O)c1ccco1)c1nc2ccc(Cl)cc2s1	-22%	26%
Cc1ccccc1CN1CCN(Cc2cccc(F)c2)CC1	-3%	2%
CCOc1ccc(C(=O)Nc2ccc3oc(-c4ccc(Br)cc4)nc3c2)cc1	0%	-12%
CCOC(=O)C1=C(C)NC(C)=C(C(=O)OCC)C1c1ccccc1/C=C/C(=O)OC(C)(C)C	-12%	-8%[11.5 µM]
COc1cccc(-n2ccn(CC(=O)c3ccc(F)cc3)c(=O)c2=O)c1	-6%	-15%
O=C(c1cc(=O)c2ccccc2o1)N(Cc1cccc(Cl)c1)c1ccccn1	67%[activator]	-14%
COc1ccc(C2=C(N3CCN(c4cccc(C)c4)C(C)C3)c3ccccc3C2=O)cc1 (stereo not given)	-18%	76%[activator]
Cc1ccc(-c2cc(C(=O)NCCCn3ccnc3)c3ccccc3n2)cc1	43%[activator]	46%[activator]
Cc1cccc(NC(=O)CSc2nc(-c3cccs3)cc(C(F)(F)F)c2C#N)c1C	-21%	-17%
N#CCc1nc(-c2ccc3c(c2)OCCO3)cs1	6%	193%[activator]
O=C(CCC1CCCC1)N1CCN(C(=O)c2cc(=O)c3ccccc3o2)CC1	-11%	-3%
CCc1cc(CC)n(-c2nc3c(c(=O)n(Cc4ccccc4F)c(=O)n3C)n2CC)n1	-15%	-17%
CCn1c(C)cc(-c2csc(NCc3ccccc3OC)n2)c1C	-10%	-7%
COc1cc(/C=C/c2nc(C#N)c(N3CCCC3)o2)cc(OC)c1OC	-12%	-3%
O=C(Nc1c(C(=O)N2CCN(c3ccccc3)CC2)oc2ccccc12)c1ccccc1F	198%[activator]	-18%
Cc1oc2cc(OCC(=O)Nc3nccs3)ccc2c(=O)c1-c1ccc(Cl)cc1	-6%	31%[activator]
CC1=C(c2ccc(C)cc2)S(=O)(=O)N(Cc2ccc(C(=O)Nc3ccc(C)c(F)c3)cc2)C1=O	14%	-5%
O=c1c2ccccc2nc(/C=C/c2cccc3ccccc23)n1-c1ccccc1Cl	25µM*	?
Next part
SMILES	2A Renilla	2A firefly
CNCCCCOc1ccc(Cc2ccccc2)cc1	-23%	-3%
CCCC(C)NC(=O)c1cnn(-c2ccccc2F)c1-n1cccc1 (stereo not given)	?	?
COc1cccc(CNC(=O)c2cc3c(=O)oc4ccc(C)cc4c3s2)c1	-17%	-37%
O=C1CC(c2nnc(Cc3c(F)cccc3Cl)o2)CN1c1ccccc1 (stereo not given)	-7%	-8%
COc1ccc(OCC(=O)Nc2ccc3c(c2)nc(CCn2nc(C)cc2C)n3C)cc1	?	?
COc1ccc2oc(=O)c(C(=O)NCCc3c(C)[nH]c4ccc(F)cc34)cc2c1	0%	1%
Cc1cc(C)c(NC(=O)c2cn(Cc3ccccc3)nn2)c(C)c1	-4%	0%
COc1ccccc1Oc1ccc(NC(=O)C2CCN(S(C)(=O)=O)CC2)cc1	-8%	1%
CCOC(=O)N1CCN(Cc2cc(=O)oc3c(C)cc(C)cc23)CC1	-1%	7%
COC(=O)c1ccccc1SCC(=O)Nc1cccc2c(=O)[nH][nH]c(=O)c12	5%	112%[activator]
COc1cc(NS(=O)(=O)c2ccc(-c3cnc(C4CC4)o3)cc2)cc(OC)c1	?	?
Cc1cc(F)ccc1NC(=O)c1nn(-c2ccccc2)c(=O)c2ccccc12	-4%	-6%
COc1cc2c(=O)n(CCC(=O)NCC3CCCO3)c(=O)n(CC(=O)Nc3c(C)cccc3C)c2cc1OC (stereo not given)	-2%	-13%
COc1ccc(C(=O)NCC(c2cccnc2)N2CCc3ccccc32)cc1OC (stereo not given)	-7%	-13%
Cc1cccc(NC(=O)CCS(=O)(=O)c2ccc3c(c2)CCN3C(=O)C2CC2)c1	5%	1%
Cc1ccc(-n2nc(C)c(C(=O)N3CCc4ccccc4C3)c2-n2cccc2)cc1	-3%	-25%
COCCn1c(SCC(C)C)nc2c1c(=O)[nH]c(=O)n2C	5%	12%
CCOCCCNc1nc2c(c(=O)[nH]c(=O)n2C)n1CCC(C)C	-5%	1%
COC(=O)c1cccc(NC(=O)COc2ccc3c(C)cc(=O)oc3c2)c1	6%	5%
O=C(O)CCc1ccc(S(=O)(=O)Nc2cccc3c2CCCC3)cc1	-1%	-6%
CN1CCN(c2nc(-c3cn(CCC#N)c4ccccc34)cs2)CC1	-9%	-8%
O=C(NCCc1ccccc1)c1ccc2c(c1)N(Cc1ccccc1)C(=O)c1ccccc1S2(=O)=O	25%	0%
CNS(=O)(=O)c1ccc(NC(=O)c2cnn3c(C(F)F)cc(-c4ccccc4)nc23)cc1	3%	-10%
CC(=O)Nc1cc(-c2nc3ccc(C)cc3o2)ccc1Cl	14%	300%[activator]
CC(=O)c1ccc(N2CCN(C(=O)CCc3ncc(-c4c(F)cccc4F)o3)CC2)cc1	-3%	4%
Cc1ccc(NC(=O)Cn2cc3c(n2)CCCC3)c(Cl)c1	17%	21%
CCC(CN)Cc1ccccc1 (stereo not given)	0%	-3%
O=C(c1cc(-c2ccc(Br)cc2)n[nH]1)N1CCN(S(=O)(=O)c2ccc(Br)s2)CC1	-6%	9%
O=C(Cc1c(F)cccc1Cl)NCc1cccc(NC(=O)c2ccncc2)c1	5%	8%
COc1ccc(/C=C(/C#N)C(=O)Nc2ccccc2C(=O)O)cc1OC	13%	0%
COc1ccccc1N1CCN(c2ncccc2-c2nc(-c3ccc(Cl)cc3)no2)CC1	-5%	29%
O=C(/C=C/c1ccc(-c2c(Cl)cccc2Cl)o1)c1ccccc1	-7%	81%[activator]
Cc1nc2n(n1)C(C(=O)Nc1ccc(C(C)C)cc1)CC(=O)N2 (stereo not given)	-19%	-23%
COc1ccc(CN(C)CC(=O)N(C)c2ccccc2C(=O)NCc2ccco2)cc1	5%	6%
CCOC(=O)c1ccc(NC(=O)Cn2nc3c(cc2=O)CC(C)CC3)cc1 (stereo not given)	-13%	-9%
Cc1cc(C)c2c(CC(=O)N3CCN(c4cccc(Cl)c4)CC3)coc2c1	31%	-6%
O=C(c1cc2cc(Br)ccc2o1)c1cc(F)ccc1F	0%	43%[activator]
COc1ccccc1NC(=O)c1ccc2c(=O)n(-c3ccccc3F)cnc2c1	-14%	6%
COc1ccc(C(=O)Nc2ccc(-c3nc4ccccc4s3)c(Cl)c2)cc1Cl	-9%	159%[activator]
CCN(CC)CCOc1ccc(/C(=C(\Cl)c2ccccc2)c2ccccc2)cc1	-4%	-7%
COc1ccc(OC)c(NC(=O)c2c(NCc3cccs3)sc3c2CCCC3)c1	?	-14%
CCCC(C)C(=O)NCc1cccs1 (stereo not given)	5%	14%
CCCCN(Cc1ccccc1)c1ccc(NS(=O)(=O)c2ccc(C(C)=O)cc2)cc1C(=O)O	15%	?
CCc1ccc(C2c3c(-c4ccccc4)n[nH]c3C(=O)N2c2ccc(C(=O)O)cc2)cc1 (stereo not given)	-8%	-5%
COc1ccc(Cn2c(-n3nc(C)cc3C)nc3c2c(=O)n(CC(N)=O)c(=O)n3C)cc1	-1%	3%
O=C(Nc1cccc(-c2nc3ccccc3o2)c1)c1ccc2c(c1)OCO2	6%	35%
Brc1cccc(-c2nc(-c3ccccn3)no2)c1	-6%	?
Fc1ccccc1CCNc1ncnc2nc[nH]c12	-29%	67%[activator]
CCCc1noc(CSc2nc(-c3ccco3)nc3ccccc23)n1	-28%	4%

Compounds shown so far with an NH in an aromatic ring (14):
SMILES	2A Renilla	2A firefly
Cn1cc[nH]c1=S	-4%	-4%[11.5 µM]
O=C(NCc1cccc(Cl)c1)C(=O)Nc1cccc2[nH]ccc12	17%	107%[activator]
c1cc2cc(CNC3CC3)ccc2[nH]1	0%	4%
COc1ccc2[nH]c(=O)c(CN(C(=O)c3cccc(Cl)c3)c3ccccc3OC)cc2c1	-9%	-18%
Cc1[nH]c2ccccc2c1C(=O)C(C)OC(=O)c1ccccc1F (stereo not given)	-2%[1.06 µM]	23%
CCc1ccc(NC(=O)c2cc(S(=O)(=O)N3CCCCC3)c[nH]2)cc1	96%[activator]	-10%
FC(F)(F)c1ccc(=S)[nH]c1	2%	-1%
COc1ccc2oc(=O)c(C(=O)NCCc3c(C)[nH]c4ccc(F)cc34)cc2c1	0%	1%
COC(=O)c1ccccc1SCC(=O)Nc1cccc2c(=O)[nH][nH]c(=O)c12	5%	112%[activator]
COCCn1c(SCC(C)C)nc2c1c(=O)[nH]c(=O)n2C	5%	12%
CCOCCCNc1nc2c(c(=O)[nH]c(=O)n2C)n1CCC(C)C	-5%	1%
O=C(c1cc(-c2ccc(Br)cc2)n[nH]1)N1CCN(S(=O)(=O)c2ccc(Br)s2)CC1	-6%	9%
CCc1ccc(C2c3c(-c4ccccc4)n[nH]c3C(=O)N2c2ccc(C(=O)O)cc2)cc1 (stereo not given)	-8%	-5%
Fc1ccccc1CCNc1ncnc2nc[nH]c12	-29%	67%[activator]
